Methyltransferases – Primary Screen for Target Class Profiling of Small Molecule Inhibitors of Methyltransferases; purified enzyme, MTase-Glo SAH luminescence; stronger effect = lower value; calls only at 40 µM; hit rate 3.9% among 25,000; AID 1745853, 2022; active = -50% or lower on at least one of six enzymes; inconclusive = the cases between; inactive = as a rule above -30% on all six;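 further: enzymes were COMT GAMT GNMT HNMT NNMT and PNMT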
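Each enzyme was reacted with SAM and its substrate, with compounds tested once at 40 uM; SAH formed was read by MTase-Glo luminescence.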
Calls only. On the % scale 0 is the no-effect control and ±100 the full control effect.

Screening COc1ccc(CN2CC(c3nc(Cc4cccnc4)no3)C2)c(OC)c1 returned Methyltransferases inconclusive.
`CCOc1ccc(CCNC(=O)Cn2ccc3cc(S(=O)(=O)N4CCCC4)ccc32)cc1` gave Methyltransferases inactive.
Cc1cc2nn(CC(=O)Nc3cccc(Cl)c3)c(=O)n2c(Nc2ccccc2C)n1 was read as Methyltransferases inactive.
`CC(=O)O[C@@H]1[C@H](O[C@@H]2OC[C@](O)(CO)[C@H]2O)[C@@H](O[C@@H]2O[C@@H](C)[C@H](O)[C@@H](O)[C@H]2O)[C@H](OC(=O)[C@]23CCC(C)(C)C[C@H]2C2=CCC4[C@@]5(C)C[C@H](O)[C@H](O[C@@H]6O[C@H](C(=O)O)[C@@H](O)[C@H](O)[C@H]6O)[C@@](C)(C(=O)O)C5CC[C@@]4(C)[C@]2(C)CC3)O[C@@H]1C` (stereo partly specified) gave Methyltransferases inactive.
Screening Cc1nc(N=Nc2ccc(S(=O)(=O)O)cc2S(=O)(=O)O)c(COP(=O)(O)O)c(C=O)c1O returned Methyltransferases inactive.
`Cc1cccc(NC(=O)Cn2nc3n(C(C)C)c(=O)c4ccc(C(=O)NC5CCCCC5)cc4n3c2=O)c1` gave Methyltransferases inactive.
`O=C(COc1ccc(-c2nnc3n2CCCC3)cc1)N1CCN(c2ccc(F)cc2)CC1` gave Methyltransferases inactive.
For CN(Cc1ccccc1)Cc1cc(C[C@@H]2C[C@H](NC(=O)C3CCC3)C2(C)C)no1 the results were Methyltransferases inactive.
`Cc1nc(Nc2ccc(F)cc2)nc(N2CCc3ccccc3C2C)c1C` (stereo unspecified) gave Methyltransferases inactive.
Screening CCCNC(=O)CNC(=O)C1(C)Cn2c(cc3ccccc32)C(=O)N1C (stereo unspecified) returned Methyltransferases inactive.
`Cc1ccc(Cc2nn3c(SCC(=O)Nc4ccc(C)cc4C)nnc3[nH]c2=O)cc1` gave Methyltransferases inactive.
`O=C(NC1CCCC1)N1CCCC(C(=O)N2CCC(c3nc4ncccc4[nH]3)C2)C1` (stereo unspecified) gave Methyltransferases inactive.
`Cc1cc(OCCCS(C)(=O)=O)cc(C)c1-c1cccc(COc2ccc3c(c2)OC[C@H]3CC(=O)O)c1` gave Methyltransferases inconclusive.
For CCN(CC)Cc1cccc(NS(=O)(=O)NCc2ccccc2)c1 the results were Methyltransferases inactive.
For CC1(C(=O)NCc2ccccc2)Cn2cnc(C(=O)NCc3ccccc3F)c2C(=O)N1C1CC1 (stereo unspecified) the results were Methyltransferases inactive.

3 entries drawn at random from the list so far:
`Cc1cc(OCCCS(C)(=O)=O)cc(C)c1-c1cccc(COc2ccc3c(c2)OC[C@H]3CC(=O)O)c1` gave Methyltransferases inconclusive.
`Cc1ccc(Cc2nn3c(SCC(=O)Nc4ccc(C)cc4C)nnc3[nH]c2=O)cc1` gave Methyltransferases inactive.
Cc1cc2nn(CC(=O)Nc3cccc(Cl)c3)c(=O)n2c(Nc2ccccc2C)n1 was read as Methyltransferases inactive.

More records follow.
Screening CCN1CCN(CCN2CC3(CCN(C4CCOCC4)CC3)OC2=O)CC1 returned Methyltransferases inactive.
COC(=O)NC1CCN(c2ccc3nnc(-c4ccccc4)n3n2)C1 (stereo unspecified) was read as Methyltransferases inactive.
Screening CCOc1ccc(CN2C(=O)c3cc4occc4n3CC2(C)C(=O)NC2CCC(C)CC2)cc1 (stereo unspecified) returned Methyltransferases inactive.
For CCCCN1C(=O)c2cc(C(=O)Nc3c(C)cccc3CC)nn2CC1(C)C(=O)NC1CCCC1 (stereo unspecified) the results were Methyltransferases inactive.
Screening CCOC(=O)c1cc2n(n1)CC(C)(C(=O)NCc1ccc(C)cc1)N(c1ccccc1CC)C2=O (stereo unspecified) returned Methyltransferases inactive.
COc1ccc(CN2C(=O)c3nc4ccccc4n3CC2(C)C(=O)NC2CCCC2)cc1 (stereo unspecified) was read as Methyltransferases inactive.
For COc1ccccc1NC(=O)CSc1nnc2n(Cc3ccc(F)cc3)c(=O)c3ccccc3n12 the results were Methyltransferases inactive.
`CC(C)C[C@H](NC(=O)[C@H](Cc1ccccc1)NC(=O)c1cnccn1)B(O)O` gave Methyltransferases inactive.
CN[C@H](CC(C)C)C(=O)N[C@H]1C(=O)N[C@@H](CC(N)=O)C(=O)N[C@H]2C(=O)N[C@H]3C(=O)N[C@H](C(=O)N[C@H](C(=O)O)c4cc(O)cc(O)c4-c4cc3ccc4O)[C@H](O[C@H]3C[C@](C)(N)[C@@H](O)[C@H](C)O3)c3ccc(c(Cl)c3)Oc3cc2cc(c3O[C@@H]2O[C@H](CO)[C@@H](O)[C@H](O)[C@H]2O[C@H]2C[C@](C)(NCc3ccc(-c4ccc(Cl)cc4)cc3)[C@@H](O)[C@H](C)O2)Oc2ccc(cc2Cl)[C@H]1O was read as Methyltransferases inactive.
Screening O=S(=O)(c1ccccc1C(F)(F)F)N1CC(c2nc(-c3ccncc3)no2)C1 returned Methyltransferases inactive.
`Nc1nc(CCC(=O)N[C@@H]2COCC[C@H]2Oc2ccc(CO)cc2)cs1` gave Methyltransferases inactive.
`COc1cc(/C=C(\C#N)C(=O)c2ccc(O)c(O)c2)cc(I)c1O` gave Methyltransferases active.
`CC(C)CS(=O)(=O)N[C@H](C)c1onc(-c2ccc(F)cc2)c1C(=O)O` gave Methyltransferases inactive.
CCCCN1C(=O)c2cc(C(=O)Nc3c(C)cccc3C)nn2CC1(C)C(=O)NC1CCCC1 (stereo unspecified) was read as Methyltransferases inactive.
Cc1ncoc1C(=O)N1CCC2(CC1)CC(N(Cc1ccccc1)C1CC1)CCO2 (stereo unspecified) was read as Methyltransferases inactive.
CC(C)(C)c1nc(C(=O)NCc2cccnc2)n2ccncc12 was read as Methyltransferases inactive.
For CC1CC(C)CN(S(=O)(=O)c2ccc3c(c2)oc(=O)n3CC(=O)N2C(C)CCCC2C)C1 (stereo unspecified) the results were Methyltransferases inactive.
Screening COC1CCCN(C(=O)c2cnc(Cc3c(Cl)cccc3Cl)[nH]c2=O)C1 (stereo unspecified) returned Methyltransferases inactive.
Screening C=C1C(=O)OC2CC(C)C(CCC(C)=O)=CCC12 (stereo unspecified) returned Methyltransferases inactive.
Screening O=C(CCc1nnc2n(CCc3ccccc3)c(=O)c3ccccc3n12)NCCN1CCOCC1 returned Methyltransferases inactive.
For COc1cccc(CNC(=O)CCc2nnc3n(CCc4ccccc4)c(=O)c4ccccc4n23)c1 the results were Methyltransferases inactive.
For C=C[C@](C)(O)CC[C@H]1C(C)=CC(=O)[C@H]2C(C)(C)CCC[C@]12C the results were Methyltransferases inactive.
`CC(C)CCNC(=O)C1(C)Cn2nc(C(=O)NCCCN3CCCC3)cc2C(=O)N1C` (stereo unspecified) gave Methyltransferases inactive.
COCC(=O)N[C@@H]1CN(Cc2cccn2C)C[C@H]1CO was read as Methyltransferases inactive.
O=C1CCCC2=C1C(c1ccccc1I)N=C(Nc1nc3ccccc3o1)N2 (stereo unspecified) was read as Methyltransferases inconclusive.
CC(C)Oc1ccc(CN2C(=O)c3cc4occc4n3CC2(C)C(=O)NC2CCCCC2)cc1 (stereo unspecified) was read as Methyltransferases inactive.
`CCc1nc2c(c(-c3ccc(Cl)cc3)n1)CN([S+](=O)([O-])c1c(C)noc1C)CC2` gave Methyltransferases inactive.
Cc1c(Cl)cccc1N1C(=O)c2cc3sccc3n2CC1(C)C(=O)NC1CCCCC1 (stereo unspecified) was read as Methyltransferases inactive.
COc1cccc(N2CCN(C(=O)CCCc3nnc4n5nc(-c6ccccc6)nc5c5ccccc5n34)CC2)c1 was read as Methyltransferases inactive.
`Clc1ccc(N2CCN(Cc3c[nH]c4ncccc34)CC2)cc1` gave Methyltransferases inactive.
C=C1C(O)CC2C(C(=O)O)=COC(OC3OC(CO)C(O)C(O)C3OC(=O)/C=C\c3ccc(O)cc3)C12 (stereo unspecified) was read as Methyltransferases inactive.
For O=C(C1CCCNC1)N1CCCn2cc(-c3ccccc3F)nc21 (stereo unspecified) the results were Methyltransferases inactive.
Screening CC1CCCC(NC(=O)C2(C)Cn3c(cc4sccc43)C(=O)N2Cc2ccccc2Cl)C1C (stereo unspecified) returned Methyltransferases inactive.
Screening CSCCC(NS(=O)(=O)c1ccc2c(c1)oc(=O)n2C)C(=O)N1CCC(Cc2ccccc2)CC1 (stereo unspecified) returned Methyltransferases inactive.
For CC(C)C(=O)Oc1ccc(CO)cc1[C@H](CCN(C(C)C)C(C)C)c1ccccc1 the results were Methyltransferases inactive.
`COc1ccc(CNc2nc3c(S(=O)(=O)c4cc(C)ccc4C)nnn3c3ccccc23)cc1` gave Methyltransferases inactive.
For CCOCCCNC(=O)c1cc2n(n1)CC(C)(C(=O)NCc1ccccc1)N(C)C2=O (stereo unspecified) the results were Methyltransferases inactive.
Screening O=C(NCCCc1ccccc1)c1nc2sccn2c1-c1cccc(C(F)(F)F)c1 returned Methyltransferases inactive.
Screening Fc1cc(F)c2c(c1)[C@@H]1C=CC[C@@H]1[C@H](c1ccncc1)N2 returned Methyltransferases inactive.
CCCCS(=O)(=O)N[C@@H]1CN(Cc2ccncc2)C[C@H]1CN(C)C was read as Methyltransferases inactive.
O=C(NCc1ccccc1Cn1cccn1)c1ccc2cccc(F)c2n1 was read as Methyltransferases inactive.
CCCN1C(=O)c2c(C(=O)NCc3ccccc3Cl)ncn2CC1(C)C(=O)NCc1ccc(C)cc1 (stereo unspecified) was read as Methyltransferases inactive.
Screening CCc1ccccc1NS(=O)(=O)c1ccc2c(c1)NC(=O)C(C)C(=O)N2 (stereo unspecified) returned Methyltransferases inactive.
For CN1CCCN(C(=O)c2ccccc2F)c2ccccc21 the results were Methyltransferases inactive.
For O=C(NCc1ccncc1)C1c2ccccc2C(=O)N(C2CCCC2)C12CCCCC2 (stereo unspecified) the results were Methyltransferases inactive.
For CC(C)OCCCNC(=O)C1c2c(n(C)c3ccccc23)SCC(=O)N1c1ccc(Cl)cc1 (stereo unspecified) the results were Methyltransferases inactive.
COC(=O)[C@H](NC(=O)[C@@H]1C[C@H](NC(=O)Nc2ccc(OC)cc2)CN1C(=O)c1cccn1C)C(C)C was read as Methyltransferases inactive.
`CC1(C)[C@H]2CC[C@@H](CNC(=O)c3cncc(Br)c3)[C@@H]1C2` gave Methyltransferases inactive.
Screening O=C(/C=C/c1ccc(O)c(O)c1)OCCc1ccccc1 returned Methyltransferases inactive.
Screening Cn1ccnc1CN1C(=O)CO[C@H]2CN(C3CCCCC3)C[C@H]21 returned Methyltransferases inactive.
For CC(C)Oc1ccc(CN2C(=O)c3cc(-c4ccccc4)nn3CC2(C)C(=O)NCc2ccccc2)cc1 (stereo unspecified) the results were Methyltransferases inactive.
For Cc1ccc(N2C(=O)c3cc4sccc4n3CC2(C)C(=O)NC2CCCCCC2)c(C)c1 (stereo unspecified) the results were Methyltransferases inactive.
Screening Cc1nnc2n1CCC(NC(=O)c1cnccn1)CC2 (stereo unspecified) returned Methyltransferases inactive.
CC(=O)Nc1c2n(c3ccccc13)CC(C)(C(=O)NC1CCCC1)N(Cc1ccccc1Cl)C2=O (stereo unspecified) was read as Methyltransferases inactive.
CCOC(=O)C(Cc1c[nH]c2ccccc12)NC(=O)c1ccco1 (stereo unspecified) was read as Methyltransferases inactive.
`CCOCCOC(=O)C(C)Oc1ccc2c(=O)c(-c3ccc(OC)c(OC)c3)c(C(F)(F)F)oc2c1` (stereo unspecified) gave Methyltransferases inactive.
Screening C=Cc1ccc(Cn2nc3n(CC(C)C)c(=O)c4ccc(C(=O)NC5CCCC5)cc4n3c2=O)cc1 returned Methyltransferases inactive.
Screening O=C1CCC(c2ccc(-n3ccnc3)cc2)=NN1 returned Methyltransferases inactive.
Screening CCOc1ccc(CN2C(=O)c3cc(C4CC4)nn3CC2(C)C(=O)NC2CCCCCC2)cc1 (stereo unspecified) returned Methyltransferases inactive.
For CC(c1ncncc1F)C(O)(Cn1cncn1)c1ccc(F)cc1F (stereo unspecified) the results were Methyltransferases inconclusive.
Screening O=C(CN1CCOCC1)NC1CCc2nnc(C3CC3)n2CC1 (stereo unspecified) returned Methyltransferases inactive.
c1cc(-c2n[nH]c(CC3CCNC3)n2)ccn1 (stereo unspecified) was read as Methyltransferases inactive.
`Cn1cc(S(=O)(=O)c2ccc(Cl)cc2)c2cccc(N3CCNCC3)c21` gave Methyltransferases inactive.

Structures listed so far containing a Cl atom (eleven):
Cc1cc2nn(CC(=O)Nc3cccc(Cl)c3)c(=O)n2c(Nc2ccccc2C)n1 was read as Methyltransferases inactive.
CN[C@H](CC(C)C)C(=O)N[C@H]1C(=O)N[C@@H](CC(N)=O)C(=O)N[C@H]2C(=O)N[C@H]3C(=O)N[C@H](C(=O)N[C@H](C(=O)O)c4cc(O)cc(O)c4-c4cc3ccc4O)[C@H](O[C@H]3C[C@](C)(N)[C@@H](O)[C@H](C)O3)c3ccc(c(Cl)c3)Oc3cc2cc(c3O[C@@H]2O[C@H](CO)[C@@H](O)[C@H](O)[C@H]2O[C@H]2C[C@](C)(NCc3ccc(-c4ccc(Cl)cc4)cc3)[C@@H](O)[C@H](C)O2)Oc2ccc(cc2Cl)[C@H]1O was read as Methyltransferases inactive.
Screening COC1CCCN(C(=O)c2cnc(Cc3c(Cl)cccc3Cl)[nH]c2=O)C1 (stereo unspecified) returned Methyltransferases inactive.
`CCc1nc2c(c(-c3ccc(Cl)cc3)n1)CN([S+](=O)([O-])c1c(C)noc1C)CC2` gave Methyltransferases inactive.
Cc1c(Cl)cccc1N1C(=O)c2cc3sccc3n2CC1(C)C(=O)NC1CCCCC1 (stereo unspecified) was read as Methyltransferases inactive.
`Clc1ccc(N2CCN(Cc3c[nH]c4ncccc34)CC2)cc1` gave Methyltransferases inactive.
Screening CC1CCCC(NC(=O)C2(C)Cn3c(cc4sccc43)C(=O)N2Cc2ccccc2Cl)C1C (stereo unspecified) returned Methyltransferases inactive.
CCCN1C(=O)c2c(C(=O)NCc3ccccc3Cl)ncn2CC1(C)C(=O)NCc1ccc(C)cc1 (stereo unspecified) was read as Methyltransferases inactive.
For CC(C)OCCCNC(=O)C1c2c(n(C)c3ccccc23)SCC(=O)N1c1ccc(Cl)cc1 (stereo unspecified) the results were Methyltransferases inactive.
CC(=O)Nc1c2n(c3ccccc13)CC(C)(C(=O)NC1CCCC1)N(Cc1ccccc1Cl)C2=O (stereo unspecified) was read as Methyltransferases inactive.
`Cn1cc(S(=O)(=O)c2ccc(Cl)cc2)c2cccc(N3CCNCC3)c21` gave Methyltransferases inactive.

Assay outcomes from PubChem BioAssay.

Only part of the results is shown; the hit share may differ from the screen's.
